Screening results: PubChem BioAssay, several laboratories
Calb FLC = affects C. albicans growth with fluconazole; actives 0.57% (n = 300,000); growth inhibition, % (concentration not given with the values); C. albicans CaCi-2 (fluconazole-resistant clinical isolate) + fluconazole, Alamar Blue growth, 48 h; AID 1979;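 active = most replicates above 75%; inconclusive = exactly half above 75%; inactive = most below 75%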;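 also: all wells also contain fluconazole at 8 µg/ml as a sub-toxic cotreatment; 0% = median of DMSO wells and 100% = median of geldanamycin control wells; wells of about 8 µL received 7.5 nL stock; the first replicate is given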
AF4-AF9 inh = MLL-AF4/AF9 protein interaction inhibition; inhibition, % at 10 µM; AlphaScreen, biotin-AF4 peptide binding to FLAG-AF9; actives 0.47% (n = 350,000);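 active = every replicate reaching a set inhibition limit, whatever the replicate mean, cut at about 25% in these data; inconclusive = mean inhibition reaches that limit but some replicates miss it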;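 also: 0% = plate neutral control median and 100% = total signal loss; the record names both 10 and 1 µM as test concentration; the first replicate is given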
Target sequence (P42568 whole entry, looked up): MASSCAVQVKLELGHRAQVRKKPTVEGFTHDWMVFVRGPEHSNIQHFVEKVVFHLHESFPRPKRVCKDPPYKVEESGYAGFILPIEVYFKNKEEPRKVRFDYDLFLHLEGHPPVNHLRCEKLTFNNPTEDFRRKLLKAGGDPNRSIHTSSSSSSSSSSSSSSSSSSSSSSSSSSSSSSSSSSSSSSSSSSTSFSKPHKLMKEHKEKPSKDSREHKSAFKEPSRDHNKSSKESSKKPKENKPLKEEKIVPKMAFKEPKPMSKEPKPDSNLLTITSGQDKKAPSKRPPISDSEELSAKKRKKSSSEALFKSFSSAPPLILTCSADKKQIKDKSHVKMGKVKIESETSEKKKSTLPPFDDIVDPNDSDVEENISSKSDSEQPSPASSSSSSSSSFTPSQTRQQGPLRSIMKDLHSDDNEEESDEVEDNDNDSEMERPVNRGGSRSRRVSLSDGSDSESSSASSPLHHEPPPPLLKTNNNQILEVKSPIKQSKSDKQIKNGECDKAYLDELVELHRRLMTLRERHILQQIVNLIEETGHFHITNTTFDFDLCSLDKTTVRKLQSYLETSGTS
A1 inh = inhibitors of the anti-apoptotic protein A1, read as caspase activation; MEF A1-2A-BIM cells, Caspase-Glo 3/7 luminescence, 3 h; percent of clofoctol response, vehicle zero; caspase activation, % (concentration not given with the values); actives 0.066% (n = 330,000); AID 2462;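 active = over half of replicate activation scores above 10%, or exactly half above 10 with the replicate mean above 10; inconclusive = replicate mean below 10 yet half the replicates above 10; inactive = over half of replicates below 10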;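 also: wells of about 30 µL received 50 nL stock; many hits fall short of the cut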
T cruzi inh = T. cruzi replication inhibition; T. cruzi beta-gal in NIH3T3, luminescence, 90 h; actives 1.4% (n = 300,000); inhibition, % (no concentration beside the values);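 active = mean inhibition across valid replicates above about 55%, limit read from the data; inconclusive = mean below that limit but half or more replicates reach it; inactive = mean below it, under half of replicates reach it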;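 also: signal also drops with host cell toxicity which is not excluded here; 0% = plate median of DMSO wells and 100% = zero luminescence signal; higher percent means less beta-gal luminescence so fewer parasites; stock transfer was 50 nL into about 50 µL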
Vif A3G = HIV-1 Vif–A3G interaction blockers – biochemical, TR-FRET, GST-Vif 1-94, biotin-A3G peptide, dose response retest, primary screen (AID 1117319). TR-FRET GST-Vif / biotin-A3G peptide binding; higher % means a stronger effect; test concentration not given here; strong numbers were not always called active. inhibition, %, or IC50 in µM where a hit was titrated. actives 0.57% (n = 260,000);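 active = above the screen mean plus three standard deviations and confirmed in dose response; inconclusive = results disagree or hit not tested in dose response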;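 also: Vif residues 1-94 fused to GST binding biotinylated APOBEC3G peptide 110-148; 0% = full assay without inhibitor and 100% = GST in place of GST-Vif; retest series ran down from 100 µM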
Beta cell apopt = blocks beta cell apoptosis; INS-1E cytokine-induced death, ATP luminescence, 48 h; percent of positive-control rescue, neutral wells zero; protection from apoptosis, % (no concentration beside the values); actives 0.8% (n = 300,000); AID 435005;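 active = all replicates at 75% or more, or half of them and the mean; inconclusive = half reach 75% but not the mean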;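 also: 0% = cytokine-treated negative control wells and 100% = positive control rescue; higher means more ATP so stronger rescue from cytokine killing; wells of about 40 µL received 100 nL stock; the first replicate is given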
LANA-H2B inh = blocks KSHV LANA binding to histone H2A/H2B. inhibition, % (no concentration beside the values). actives 0.6% (n = 320,000). cell-free LANA-H2A/H2B peptide, fluorescence polarization. AID 2629. Q9QR71; in the data active = inhibition mostly above about 10%, no sharp cut-off; inactive = mostly below about 6.7%;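 also: stock transfer was 7.5 nL into about 10 µL; 0% = median of vehicle wells and 100% = median of positive control wells; one replicate is shown; the record names a cut of 25% in any replicate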
RanGTP-Impb inh = inhibitors of RanGTP-importin-beta interaction, primary screen, biochemical, FRET, CFP-Ran, YFP-importin-beta, homogeneous | inhibition, % (no concentration beside the values) | AID 2216 | cell-free CFP-Ran/YFP-importin-beta FRET ratio | actives 1.1% (n = 300,000);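 active = most replicates above 15%; inconclusive = exactly half above 15%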;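 also: 0% = DMSO wells and 100% = Ran loaded with GDP instead of GTP; wells of about 40 µL received 100 nL stock; the first replicate is given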
* marks the source's active call; other numbers are inactive results; ? = inconclusive; nt = not tested or not shown; & = joins results of further samples. Random draw from the library; 4.3% or so of the library scored in one or more.

SMILES	Calb FLC	AF4-AF9 inh	A1 inh	T cruzi inh	Vif A3G	Beta cell apopt	LANA-H2B inh	RanGTP-Impb inh
CC(C)c1nn(-c2cc(C(F)(F)F)ccn2)c(=O)o1	2	0.2	?	-16	7%	1	-5.0	2.6
COc1ccc(C(C(=O)NC2CCCCC2)N(Cc2ccco2)C(=O)CNC(=O)c2ccco2)cc1 (stereo not drawn)	-7	nt	0.5	6	-9%	-4	2.7	5.9
O=C1COc2ccc(C(=O)c3ccccc3C(=O)NCc3ccccc3)cc2N1	9	nt	-0.3	0	2%	-2	-0.4	-0.2
CC1(C)CCC(=O)N2CC[C@H]3C[C@H](OC(=O)Nc4ccccc4)C[C@@H]1[C@H]32	-3	nt	-6.3	-16	nt	-2	-2.0	1.4
COC(=O)c1nn(-c2ccccc2)c(Sc2ccc(Br)cc2)c1/C=N/O	nt	nt	1.0	nt	?	-1	-8.1	nt
CN1c2ccccc2C(C)(C)C12CCCC(=O)N2 (stereo not drawn)	-11	nt	0.4	-5	?	-6	-5.1	?
CCCOc1ccc2c(C)c(CC(=O)OC)c(=O)oc2c1	2	nt	0.2	-2	-4%	5	6.5	-2.0
O=C(CCCc1nc(-c2ccccc2)no1)N1CCOCC1	-8	nt	1.0	-17	-6%	-3	-0.9	-1.7
O=C(CSc1nc(C(F)(F)F)cc(=O)[nH]1)Nc1nccs1	-1	-2.2	-0.1	2	nt	-7	1.5	5.4
Cc1ccccc1-c1n[nH]c(=S)n1/N=C/c1ccc(-c2ccccc2Br)o1	-2	-0.2	nt	13	6%	nt	nt	-1.3
O=C(N/N=C/c1ccccc1OC(=O)c1ccc2c(c1)OCO2)c1cccc(F)c1	-3	nt	0.3	-2	8%	-4	4.3	-0.7
CCN1N=C(c2cc(Cl)sc2Cl)CSC1=O	32	nt	0.1	-7	1%	0	1.0	5.3
CCOc1ccc(C(=O)NC(C(=O)NCc2ccccc2OC)C(C)C)cc1 (stereo not drawn)	-10	0.5	?	-11	16%	nt	-1.1	9.8
CCOc1ccc(/C=C2\NC(=S)NC2=O)cc1	33	-6.5	0.5	-3	66%	0	1.8	1.0
CCC[N+](C)(C)C(C)C(OC(C)=O)c1ccccc1 (stereo not drawn)	6	-2.2	-0.1	-9	?	1	2.5	5.4
COc1ccc(S(=O)(=O)Nc2cccc3c2O[C@H](CN(C)Cc2ccncc2)[C@@H](C)CN([C@H](C)CO)C3=O)cc1	nt	1.4&-11	0.2	nt	nt	2	-9.8	nt
N=C1/C(=C/c2cccn2Cc2ccc(Cl)cc2)C(=O)N=C2SC=CN12	15	nt	0.1	-12	25%	10	-0.5	3.4
COc1cc2c(cc1OC)C(c1ccc([N+](=O)[O-])cc1)NCC2 (stereo not drawn)	4	-12	-0.4	9	-11%	nt	1.8	0.8
C=CCNC(=O)c1ccc(C2SCC(=O)N2Cc2ccccc2)cc1 (stereo not drawn)	-38	-0.6	-0.4	-2	-8%	-2	0.2	0.3
O=C(CSc1cccc(C(F)(F)F)c1)Nc1ccc(N2CCOCC2)cc1	nt	-2.4	1.2	nt	nt	8	1.9	nt
c1ccc(Cn2nnc3c(N4CCC5(CC4)OCCO5)ncnc32)cc1	6	nt	-1.2	9	12%	2	5.9	-1.7
COc1ccccc1N(CC(=O)NCCSCc1ccc(C)cc1)S(=O)(=O)c1ccccc1	3	0.0	-1.3	32	nt	nt	-1.2	3.4
O=C(CCC1CCCCC1)NNC(=O)NC12CC3CC(CC(C3)C1)C2	?	nt	0.4	0	1%	-8	-8.1	8.6
CCOC(=O)CC(=O)CSc1nc(-c2ccccc2)cc(-c2ccccc2)c1C#N	5	2.9	-0.4	5	nt	-4	-0.9	-1.5
O=C(NC1CCCCC1)C1CCN(C(=O)NCc2ccccc2)CC1	5	nt	-0.8	-16	4%	-5	2.3	-0.3
COc1cccc(CNC(=O)CCCCCNC(=O)N2CCn3c2nc2ccccc23)c1	6	0.9	0.4	-12	-7%	-2	-2.7	0.6
Cc1ccc(C(=O)C=CNNC(=O)c2ccccc2)cc1	-12	-1.4	-0.3	-1	nt	-19	-5.4	0.4
O=C(CNC(=O)c1cccs1)NCC(=O)OCc1ccccc1Br	-5	-0.6	1.3	-6	nt	-4	2.1	2.1
O=C(NCCN1C(=O)S/C(=C\c2ccc(Cl)c(Cl)c2)C1=O)c1cnccn1	2	nt	-0.2	-11	20%	-5	2.4	4.2
CC(C)(C)C(=O)COC(=O)c1ccc(O)cc1	2	nt	-1.2	-10	30%	4	-1.2	-0.2
CC(C)(C)OC(=O)CNC(=O)c1nc[nH]c1C(=O)NCc1ccccc1	-3	-0.4	0.8	11	nt	1	2.2	-0.8
CCN(CC)CCSc1nnc2c3ccccc3n(CCc3ccccc3)c2n1	8	7.6	0.8	33	-2%	18	-3.3	1.1
Cc1nc2ccc(NC(=O)Cc3cccc(F)c3)cc2s1	30	2.4	-1.3	-10	nt	-2	-4.6	-0.2
Cn1nccc1NC(=O)c1nccnc1C(=O)O	-3	1.8	-0.6	3	-2%	-13	-3.7	0.7
Cc1ccc(NC(=O)NCc2c(C)nn(C)c2C)cc1Cl	26	-2.0	-0.2	1	22%	-8	-7.0	-3.4
O=C(CSc1nnc(COc2ccc(F)cc2)o1)N1CCCCC1	12	-0.3	-0.3	-2	nt	-5	-0.3	-2.3
CC(=O)Nc1ccc(C(=O)OCC(=O)N(Cc2ccccc2)C(C)(C)C)cc1	-16	nt	-0.4	2	5%	-1	-2.9	2.9
CCN(CC)CCN(C(=O)c1ccc(C(=O)c2ccccc2)cc1)c1nc2ccc(OC)cc2s1	-1	9.9	-1.0	24	nt	-14	-2.3	-0.4
NNC(=O)c1sc(-c2ccccc2)cc1N	-1	-5.4	-0.3	-21	?	2	4.6	0.6
COc1ccccc1-n1cnnc1SCC(=O)NC1CCCC1	nt	-3.5	0.3	nt	-5%	-6	4.9	nt
Cc1cccc(NC(=O)C[n+]2ccccc2)c1	-6	1.4	1.6	-7	nt	-5	2.9	1.2
C[C@H]1CCC[C@@]2(O[C@H](CCO)C[C@@H](O)[C@@H]2O)O1	-12	0.5	-0.8	-14	nt	-7	1.6	-4.4
CCn1c(SC(C)C)nnc1-c1cc(-c2ccccc2)sc1N	-4	nt	0.4	52	75%	-15	-2.7	-2.3
O=C(c1ccc(=O)[nH]c1)N1CCN(S(=O)(=O)c2ccccc2)CC1	-3	-1.0	-1.1	1	-3%	nt	3.6	-0.8
CCCCOC(=O)Nc1ccc(C(N)=O)cc1	1	nt	0.7	-2	-3%	-6	-0.8	-5.4
COC(=O)c1sc(-c2ccccc2)cc1NC(=O)c1ccc(OC)cc1	-7	-1.3	0.3	16	3%	16	0.9	-1.2
O=C(NC1=NCCS1)c1ccc(Cl)c(S(=O)(=O)N2CCCCCC2)c1	49	1.2	0.8	8	5%	-13	-2.7	1.2
CC1(C)Cc2nc3sc4c(SCC(=O)NCc5ccccc5)ncnc4c3cc2CO1	-3	nt	-0.4	10	-107%&-70%	10	2.3	2.8
COc1ccc(-c2noc(CCC(=O)NCCc3cccc(C)c3)n2)cc1	-52	-0.4	?	3	-2%	1	2.4	?
CC(/C=C/c1ccccc1)=N\NC(=O)Cn1nc(C)cc1C	3	nt	-0.2	7	nt	-6	0.6	3.4
CCc1[nH]nc(C(=O)N2CCCC(N3CCN(c4ccccc4C)CC3)C2)c1C (stereo not drawn)	-5	1.7	0.4	8	-4%	-1	0.9	5.5
CCOCCOCCC(C(=O)O)P(=O)(c1ccccc1)c1ccccc1 (stereo not drawn)	1	nt	-0.4	-38	4%	3	6.1	4.4
OCC[C@H]1C[C@@H](O)[C@H](O)[C@@]2(CCCc3ccccc3O2)O1	nt	-5.6	-0.9	nt	nt	-9	-4.0	nt
O=C(Cc1c(O)c2ccccc2[nH]c1=O)NCc1cccc(F)c1	39	0.4	-0.4	-26	11%	1	2.9	-4.1
CCNC(=S)Nc1ccc(C)c(Cl)c1	10	0.8	-0.2	-15	-7%	4	8.8	-2.5
O=C(Nc1ccc(Cl)cc1)NN1CC(=O)N(c2cccc(C(F)(F)F)c2)CC1=O	2	-16	2.0	3	3%	-2	-0.6	1.1
COc1cc(/C=C(\C#N)C(=O)N2CCCCC2)ccc1O	-14	-12	-0.7	-2	nt	-2	-1.9	3.3
COc1ccc(NC(=O)C2=NN(c3ccccc3)C(=O)CC2)cn1	nt	-5.1	0.5	nt	nt	-3	0.7	nt
O=C(CCN1C(=O)/C(=C/c2ccccc2Cl)SC1=S)NN1CCOCC1	7	4.6	-1.6	-12	nt	-8	5.1	3.5
O=C(NCCc1ccc(Cl)cc1)c1cccc(NC2=NC3CS(=O)(=O)CC3S2)c1 (stereo not drawn)	6	?	-0.7	0	nt	-6	1.6	2.3

Next part:
SMILES	Calb FLC	AF4-AF9 inh	A1 inh	T cruzi inh	Vif A3G	Beta cell apopt	LANA-H2B inh	RanGTP-Impb inh
CN(C)CCCn1c(=S)[nH]c2sc3c(c2c1=O)CCCC3	3	9.2	-0.8	29	nt	-10	-12	3.7
COCCNC(=O)c1onc(CSc2ccccc2F)c1C(=O)O	-2	-12	0.0	5	1%	0	-1.4	6.5
Cc1nc([N+](=O)[O-])c(N2CCOCC2)n1Cc1ccccc1	-1	-4.3	1.9	-11	11%	3	-4.8	1.0
COc1ccc(C(=O)Nc2ccc(S(=O)(=O)N3CCOCC3)cc2)cc1[N+](=O)[O-]	-4	-2.1	0.5	6	nt	-4	1.9	-3.4
O=[N+]([O-])c1cc(Br)c(O)c(/C=N/Nc2nnnn2-c2cccc3ccccc23)c1	69	nt	1.3	-11	14%	nt	0.2	-1.0
COCCCNC(=S)N1CCN(C(=O)c2ccco2)CC1	39	nt	0.0	-4	nt	-2	1.6	1.0
COc1ccc(-n2cnnc2SCC(=O)Nc2cc(C(C)(C)C)nn2-c2ccccc2)cc1	-13	nt	-0.1	24	2%&33%	-9	-7.8	5.0
C/C(Cn1cnc([N+](=O)[O-])n1)=N\NC(=O)c1ccccc1	4	nt	1.0	40	-6%	-3	-1.2	2.4
O=C(NCc1ccco1)c1cccc2c1C(=O)c1ccc(/C=C/c3ccccc3)cc1S2(=O)=O	nt	-47	2.3	nt	nt	10	0.2	nt
Cc1ccccc1NC(=O)c1cccc(S(=O)(=O)N2CCCCC2)c1	-9	-1.5	0.9	14	-8%	-1	1.3	-3.7
CCCN(CCC)C(=O)CC(c1ccccc1)c1ccc(C)cc1O (stereo not drawn)	8	nt	0.6	31	6%	8	8.5	3.4
Cc1[nH]nc2ncc(C(=O)c3cc(F)ccc3O)cc12	-13	nt	-0.6	-10	-8%	-12	1.4	3.2
NC(=O)CC(NC(=O)c1ccccc1)c1ccc(NC2CCC2)c([N+](=O)[O-])c1 (stereo not drawn)	2	2.2	-0.1	-16	nt	-1	-1.6	-1.8
Cc1cc(C(=O)O)ccc1-n1c(C)cc(/C=C2\SC(=O)NC2=O)c1C	2	-6.1	1.2	-9	7%	0	-0.9	2.9
O=C(CN1CCC(C(=O)O)CC1)Nc1ccccc1Oc1ccccc1	-2	-1.1	1.0	-15	18%	nt	-0.5	4.1
CCOc1ccccc1OCC(=O)OCC(=O)Nc1ncc(Cl)cc1Cl	-7	nt	0.9	14	-3%	2	0.6	1.3
